miR-21 reporter – miR-21 reporter, rising signal; Potency, µM (highest dose often 38.3 µM), for inactives: at the top dose reporter change, positive = more light; 340,000 tested, under 10 active; HeLa miR-21 FLuc reporter, luciferase, 48 h; active = well fitted rising curve with a large enough effect; inconclusive = small, poorly fitted or top-dose-only effect; inactive = no such curve, though single readings can be large or run the other way;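 also: % of control where 0% means no effect; miR-21 action dims this reporter so a rising signal means less miR-21 action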
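HeLa cells endogenously expressing miR-21, stably carrying CMV-driven firefly luciferase with a downstream miR-21 binding site, 2000 cells/well. Titrations up to approximately 40 uM, 48 hours; luciferase luminescence read.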
An asterisk follows results filed as active; ? = inconclusive.

SMILES	miR-21 reporter
Cc1cc(N2CCCCC2)nc2ccc(NC(=O)CCC(=O)N3CCN(c4ccccc4)CC3)cc12	-3%
COCCCNC(=O)c1sc2nc3n(c(=O)c2c1C)CCC3	-14%
CCOc1ccc(CCNC(=O)CN2C(=O)COc3ccc(S(=O)(=O)N(CC)CC)cc32)cc1	4%
CCCn1cc(S(=O)(=O)c2ccc(C)cc2)c(=O)c2cc(F)c(N3CCCC3)cc21	-1%
CN(C)c1ccc(C(CNS(=O)(=O)c2ccccc2)N2CCc3ccccc32)cc1 (stereo not drawn)	-11%
COc1ccc(C2C(=O)N(C3CCC(C)CC3)CC(=O)N2Cc2ccc(C)cc2)cc1OC (stereo not drawn)	3%
COc1cccc(CNC(=O)CCCn2nc(C)c3sc4ccccc4c3c2=O)c1	-27%
CSc1ccc(CNC(=O)Cn2nc(N3CCN(c4ccccc4)CC3)ccc2=O)cc1	16%
CC(C)Cn1cc(C(=O)N2CCN(c3cccc(Cl)c3)CC2)c2c3ccccc3n(C)c2c1=O	?
CCCC(=O)NCC(c1ccc2c(c1)OCO2)N1CCN(c2ccccc2)CC1 (stereo not drawn)	-2%

The last two records of the part before open the next one:
SMILES	miR-21 reporter
CC(C)Cn1cc(C(=O)N2CCN(c3cccc(Cl)c3)CC2)c2c3ccccc3n(C)c2c1=O	?
CCCC(=O)NCC(c1ccc2c(c1)OCO2)N1CCN(c2ccccc2)CC1 (stereo not drawn)	-2%
CCCCn1c(SCC(=O)Nc2ccc(F)cc2)nc2c(sc3ccccc32)c1=O	9%
CCOc1cccc2sc(NC(=O)c3ccc(S(=O)(=O)N4CCCCC4)cc3)nc12	18%
O=C(COCc1cc(-c2ccc3c(c2)OCO3)on1)NCc1ccc(F)cc1	2%
COc1ccc(NC(=O)Cn2c(=O)ccc3cc(S(=O)(=O)N4CCCC4)ccc32)cc1Cl	17%
COc1ccc(C(=O)Oc2c(Sc3ccc(C)cc3)c(C)nn2C(C)(C)C)c(OC)c1	?
Oc1c(C(c2ccccc2F)N2CCCC2)sc2nc(-c3ccco3)nn12 (stereo not drawn)	-1%
Cc1ccc(Cl)cc1N1CCN(S(=O)(=O)c2cc3[nH]c(=O)c(=O)[nH]c3cc2C)CC1	2%
CC(CCc1ccccc1)NC(=O)Cn1c(=O)nc(-c2ccccc2)c2ccccc21 (stereo not drawn)	23%
COc1ccc(CCn2cc3c(c2-c2ccc(Br)cc2)c(=O)n(C)c(=O)n3C)cc1OC	5%
COc1ccc(N2CCN(Cc3nc4c(c(=O)[nH]c(=O)n4C)n3CC(C)C)CC2)cc1	0%
N#Cc1ccccc1OCC(=O)N1CCN(c2ccccc2F)CC1	17%
CC(C)Cn1c(=O)c2sccc2n2c(CCCC(=O)NCCc3ccccc3)nnc12	3%
CCC(C)NC(=O)c1cc(Sc2cccc(Cl)c2)nc2ccccc12 (stereo not drawn)	1%
CCOC(=O)c1c(-c2ccc(OC)cc2)oc2ccc(OCc3ccccc3C)cc12	-1%
CCCSCCCNC(=O)C1CCCN(c2nn3cc(-c4ccc(OC)cc4)nc3s2)C1 (stereo not drawn)	25%
Cc1c(CC(=O)NCCc2ccccc2F)c(=O)oc2cc(O)c(Cl)cc12	-8%
CCS(=O)(=O)N1CCc2cc(C(=O)NCc3ccc(C)cc3)ccc21	-4%
CCOc1ccc(C(CC(=O)Nc2cc(C)c(Cl)cc2OC)N2Cc3ccccc3C2=O)cc1OC (stereo not drawn)	1%
COc1ccc(C(=O)NCC(c2ccc3c(c2)OCO3)N2CCN(c3ccc(F)cc3)CC2)cc1 (stereo not drawn)	?
CCOc1cccc2sc(NC(=O)c3ccc(S(=O)(=O)N4CCc5ccccc54)cc3)nc12	9%
CCOC(=O)c1ccc(NC(=O)C2CCN(S(=O)(=O)c3ccc(C)cc3)CC2)cc1	-1%
O=C(CCc1ccccc1)NC1CC(=O)N(c2cccc(F)c2)C1 (stereo not drawn)	-3%
COc1cc(OC)c(NC(=O)Cn2c(SCc3ccccc3F)nc3cccnc32)cc1Cl	-6%
CCCCOC(=O)c1ccc(NC(=O)Cc2coc3ccc(C(C)C)cc23)cc1	9%
CCOC(=O)c1cc(-c2ccc(OC)cc2)n(CCC(=O)NCCc2ccccc2)c1C	-8%
O=C(NCc1ccc(F)cc1)C(=O)NCC(c1ccc2c(c1)OCO2)N1CCOCC1 (stereo not drawn)	0%
CCOc1ccccc1NC(=O)Cn1c(=O)n(CCCC(=O)NCCc2ccc(C)cc2)c(=O)c2ccccc21	-2%
Cc1nc(-n2nc(C)c(Cc3ccccc3Cl)c2C)sc1C(=O)Nc1ccccc1F	-4%
CCOC(=O)c1c(C)n(S(=O)(=O)c2ccc(C)cc2C)c2ccc(NS(=O)(=O)c3ccc(C)cc3C)cc12	10%
COC(=O)c1cccc(NC(=O)C2CCN(S(=O)(=O)Cc3ccccc3)CC2)c1C	-1%

Individual results from the list.
O=C(CCc1ccccc1)NC1CC(=O)N(c2cccc(F)c2)C1 (stereo not drawn) in miR-21 reporter reads -3%
COc1cc(OC)c(NC(=O)Cn2c(SCc3ccccc3F)nc3cccnc32)cc1Cl in miR-21 reporter reads -6%

(list continues)
SMILES	miR-21 reporter
COc1ccc(-n2cc(C(=O)Nc3cc(F)ccc3F)c3ccccc3c2=O)cc1	-25%
COc1ccc(CN2CCN(c3ncnc4sc5c(c34)CC(C)CC5)CC2)cc1F (stereo not drawn)	-4%
COc1ccc(NC(=O)CN2C(=O)C(c3ccc(C(C)(C)C)cc3)=NC2(C)C)cc1Cl	-12%
O=C(COc1ccccc1)OCc1cc(=O)n2nc(C3CC3)sc2n1	-1%
CCc1ccccc1NC(=O)C1CCCN(c2ncnc3onc(C)c23)C1 (stereo not drawn)	8%
COC(=O)c1sc(N2C(=O)c3oc4cc(C)c(C)cc4c(=O)c3C2c2ccccc2F)nc1C (stereo not drawn)	1%
CC(=O)Nc1cccc(NC(=O)Cc2csc(COc3cccc(C)c3)n2)c1	2%
O=c1ccc2cc(S(=O)(=O)NCc3ccc(Cl)cc3)ccc2[nH]1	-18%
O=C(Nc1ccc(Cl)cc1)C(NS(=O)(=O)c1cccs1)c1ccccc1 (stereo not drawn)	8%
CCN1CCN(C(c2ccc(C)cc2)c2c(O)cc(C)n(Cc3ccco3)c2=O)CC1 (stereo not drawn)	0%
CCOc1ccccc1CNC(=O)c1ccc(Cn2c(=O)c3cccn3c3cccnc32)cc1	1%
COc1ccc(CCNC(=O)CSc2nc3ccccc3nc2Cc2ccc(C)cc2)cc1OC	?
CC(C)NC(=O)CSc1nc2ccccc2c(=O)n1Cc1ccc(C(=O)NC(C)C)cc1	1%
COc1ccccc1Cn1cc(C(=O)c2ccc(C)cc2)c(=O)c2cc3c(cc21)OCCO3	7%
CCOc1ccc(Nc2c(S(=O)(=O)c3ccccc3)cnc3ccc(CC)cc23)cc1	?
COc1ccc(C2CC(=O)Nc3c2c(C)nn3-c2nncc(-c3ccccc3)n2)c(OC)c1OC (stereo not drawn)	0%
CN(C)CCNC(=O)c1ccc2c(c1)N(Cc1ccccc1)C(=O)c1ccccc1S2(=O)=O	9%
CCN1C(C(=O)c2ccccc2)=C(OC(=O)C(C)C)c2ccccc2S1(=O)=O	?
Cc1ccc2nc(NC(=O)c3nc(SCc4ccccc4F)ncc3Cl)sc2c1	-2%
O=C(Nc1nc2n(n1)C(c1ccc(F)cc1)C=C(c1ccc(Cl)cc1)N2)c1ccc([N+](=O)[O-])cc1 (stereo not drawn)	18%
O=C(NCc1ccc2c(c1)CCN2C(=O)c1ccc(Cl)cc1)c1ccco1	16%
COc1ccccc1Nc1nn2c(=O)c3ccc(C(=O)NCCCOC(C)C)cc3nc2s1	14%
CCCc1cc(=O)[nH]c(Nc2cc(C)ccc2OC)n1	13%
COc1ccc(OC)c(NC(=O)CN(c2ccccc2OC)S(=O)(=O)c2ccc(C)cc2)c1	21%
O=C(Nc1ccc(Br)cc1)C(Cc1ccccc1)NS(=O)(=O)c1cccc2nsnc12 (stereo not drawn)	-4%
Cc1ccc(C)c(CN2C(=O)c3ccccc3S(=O)(=O)c3ccc(C(=O)N4CCCC4)cc32)c1	6%
O=C(NCc1ccccc1Cl)c1ccc2c(c1)N(Cc1ccccc1)CCS2	1%
COc1cc(OC)cc(C(=O)Nc2cccc(-c3cn4ccsc4n3)c2)c1	-11%
CCC1CCCCN1CCCNC(=O)c1ccc2c(c1)sc1nc(-c3ccc(F)cc3)cn12 (stereo not drawn)	5%
COC(=O)c1ccc(NC(=O)c2nc(-c3ccc(Cl)cc3)n3c2CCCCC3)cc1	30%
Cc1cc(Cl)ccc1NS(=O)(=O)c1c(C(=O)N2CCCCCC2)c(C)n(C)c1C	1%
Cc1cc(C)cc(NC(=O)CSCc2cc(=O)c3ccc(C)c(C)c3[nH]2)c1	-2%
O=C(NCc1cccc(F)c1)C1=Cc2cc(Br)ccc2OC1	-2%
O=C(CCCn1c(=O)[nH]c2ccccc2c1=O)NCc1ccccc1Cl	-25%
Cc1ccc(NC(=O)CCn2cccn2)cc1Cl	-14%
COc1cccc(-c2cc(C(=O)NCc3ccccc3)no2)c1	-46%
COc1ccccc1OCCn1cc(C(=O)c2cccs2)c2ccccc21	28%
COc1cccc(COC(=O)c2ccc(-c3nnn(Cc4cccc(OC)c4)n3)cc2)c1	-8%
O=C(NCc1ccccc1Cl)c1ccc(Cn2c(=O)c3cccn3c3cccnc32)cc1	-3%
COCCCNc1ncnc2c1nnn2C	-2%
CN(Cc1ccccc1)C(=O)CSc1nnc(-c2cccc(Cl)c2)o1	-8%
COCCCNC(=O)c1ccc2c(c1)N=C(C)c1c(C)ccc(C)c1S2	29%
COc1cccc(NC(=O)CSC2=Nc3ccccc3N=C(c3ccc(F)cc3)C2)c1	-9%
O=S(=O)(NCC(c1ccco1)S(=O)(=O)c1cccs1)c1ccc(Cl)cc1 (stereo not drawn)	10%
Cc1ccc(S(=O)(=O)c2nc(-c3cccs3)oc2SC(C)C)cc1	1%
CCOc1ccc(NC(=O)Cc2csc(COc3cccc(C)c3)n2)cc1	1%
COc1ccc(NC(=O)CSC2=Nc3ccccc3C3=NC(CCC(=O)NCCc4ccccc4)C(=O)N23)cc1 (stereo not drawn)	-2%
CCc1ccc(S(=O)(=O)c2cn(C)c3cc(N4CCOCC4)c(F)cc3c2=O)cc1	3%
CN1C(=O)Cc2cc(S(=O)(=O)CCC(=O)N3CCN(c4ccccc4F)CC3)ccc21	0%
CCCCCOc1ccc(Cn2c(=O)oc3ccccc32)cc1	1%

Ordered by value in miR-21 reporter (largest number first): 7 from the list above.
Compound | miR-21 reporter
CCCc1cc(=O)[nH]c(Nc2cc(C)ccc2OC)n1 | 13%
Cc1cc(Cl)ccc1NS(=O)(=O)c1c(C(=O)N2CCCCCC2)c(C)n(C)c1C | 1%
CCCn1cc(S(=O)(=O)c2ccc(C)cc2)c(=O)c2cc(F)c(N3CCCC3)cc21 | -1%
Cc1cc(C)cc(NC(=O)CSCc2cc(=O)c3ccc(C)c(C)c3[nH]2)c1 | -2%
Cc1nc(-n2nc(C)c(Cc3ccccc3Cl)c2C)sc1C(=O)Nc1ccccc1F | -4%
Cc1c(CC(=O)NCCc2ccccc2F)c(=O)oc2cc(O)c(Cl)cc12 | -8%
COc1ccc(-n2cc(C(=O)Nc3cc(F)ccc3F)c3ccccc3c2=O)cc1 | -25%

Four entries from above, comma-delimited.
Structure,miR-21 reporter
COc1ccc(NC(=O)CSC2=Nc3ccccc3C3=NC(CCC(=O)NCCc4ccccc4)C(=O)N23)cc1 (stereo not drawn),-2%
CCc1ccc(S(=O)(=O)c2cn(C)c3cc(N4CCOCC4)c(F)cc3c2=O)cc1,3%
CN1C(=O)Cc2cc(S(=O)(=O)CCC(=O)N3CCN(c4ccccc4F)CC3)ccc21,0%
CCCCCOc1ccc(Cn2c(=O)oc3ccccc32)cc1,1%

Remaining list, next part:
SMILES	miR-21 reporter
COc1ccc(NC(=O)c2nc3nc(C)cc(C(F)F)n3n2)c(C)c1	-15%
CCOC(=O)c1c(NC(=O)c2cc3nc(-c4ccc(OC)cc4)cc(C(F)(F)F)n3n2)sc(C)c1C	0%
COC(=O)c1c(-c2ccc(Cl)cc2)noc1N1CCN(c2ccc(F)cc2)CC1	0%
CCCn1c2ccccc2c2cnn(CC(=O)N(C)c3ccccc3CC)c(=O)c21	12%
CCOc1ccccc1NC(=O)CCNS(=O)(=O)c1ccc2c(c1)CCN2C(=O)C1CC1	-4%

Bioassay records deposited in PubChem by National Center for Advancing Translational Sciences (NCATS).

Some of the compounds tested; the hit share may differ from the screen's.
